# From PubChem BioAssay
# Mtb hypoxia inh: PubChem AID 1159583; M. tuberculosis hypoxia-regulated fluorescent reporter, fluorescence; fluorescence inhibition, % (no concentration beside the values); actives 0.1% (n = 300,000);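 active means 35 to 45% if threefold the growth effect, above 45% if 1.5-fold the growth effect; inactive means the rest, general growth blockers included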;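 further: wells of about 50 µL received 100 nL stock; 0% = vehicle wells and 100% = reference inhibitor wells; whole bacteria with a GFP reporter of the hypoxia response; strong numbers were not always called active; many hits fall short of the cut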
# Autofluor counter: counter-screen for toxin protease inhibitors: compound fluorescence. compound autofluorescence counterscreen, microsphere flow cytometry; hits give high values. fluorescence intensity (no concentration beside the values). actives 3.1% (n = 360,000);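 active means at least 3 SD above the mean of all compounds, about 16000 in these data; inconclusive means too few beads counted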;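 further: 100 nL of 1 mM stock went into each well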
# BJeLR viability: MLPCN primary cell-based screen for lethality selective to Ras in HRASV12 cells | BJeLR (HRASV12) viability, CellTiter-Glo ATP luminescence, 48 h; reference of the scale not given here | actives 0.17% (n = 300,000) | inhibition, % (no concentration beside the values);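 active means replicate mean above 50%; inconclusive means above 50% but judged a plate artefact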;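 further: 50 nL library stock added to about 25 µL; numbers are from one replicate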
# Sa RN4220 lethal: growth inhibition of S. aureus RN4220, primary screen, OD600 | 16 h | inhibition, % (concentration not given with the values) | actives 0.33% (n = 330,000) | AID 1259311, 2017;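 active means z-score of -3 or lower and OD600 up to 0.18 on both plates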;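 further: plate controls were untreated cells for no effect and reference antibiotic for full effect; stock transfer was 100 nL into about 80 µL; one replicate is shown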
# ugtP null kill: growth inhibition of ugtP-null S. aureus, primary screen, RN4220 ugtP deletion, OD600 | 16 h; some inactives read as strong as hits | actives 0.54% (n = 330,000) | growth inhibition, % (test concentration not listed);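 active means z-score under -3 and OD600 up to 0.15 on both plates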;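 further: plate controls were untreated wells for no effect and antibiotic for full effect; wells of about 80 µL received 100 nL stock; the first replicate is given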
# PrP UTR inh: inhibition of PrP 5' UTR reporter expression | inhibition, % (no concentration beside the values) | cell-based PrP 5' UTR mRNA reporter, plate reader | actives 0.35% (n = 340,000);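 active means every replicate at 50% or more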;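 further: 0 = median of the neutral control wells; tested in H4 reporter cells; numbers are from one replicate; inactives centre near -14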
# Mtb hypoxia inh growth: second read-out of Mtb hypoxia inh, no call of its own (marks repeat the call); growth inhibition, %; measured here: M. tuberculosis growth (absorbance);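 0% = vehicle and 100% = reference antibiotic; read after six days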
# Active calls of the source: *; ? = inconclusive; . = not tested or not shown.
# Screens in order – Mtb hypoxia inh	Mtb hypoxia inh growth	Autofluor counter	BJeLR viability	Sa RN4220 lethal	ugtP null kill	PrP UTR inh
O=C(COC(=O)c1ccc(Br)o1)NCC1CCCO1 (configuration not stated)
→ -1	11	21346*	-12	-1.1	-3	-5
CCOC(=O)/C(C=Nc1cc(C)nn1-c1ccccc1)=C(\C)O
→ 13	10	.	.	7.0	0	.
COCCN1C(=O)N[C@@H](c2ccccc2)[C@@H](C(=O)OC)[C@H]1C
→ .	.	4095	4	.	.	-20
O=C(c1ccc(Cl)cc1)C1CCN(C(=O)c2ccccc2)CC1
→ 15	18	3494	-19	-1.8	8	-22
Cc1cccc(OCc2nnc(SCC(=O)OC3CCCCC3)o2)c1
→ 13	-3	6769	-3	5.6	22	-33
CCCCN(C)C(=O)C1CCCN(S(=O)(=O)c2ccc3c(c2)CC(C)N3C(=O)C2CC2)C1 (configuration not stated)
→ -9	8	4811	1	-0.1	0	-21
O=C(CSc1nc2[nH]ncc2c(=O)n1-c1ccccc1)c1ccc2c(c1)OCCO2
→ .	.	6107	6	3.3	1	-8
COc1ccc2nc(SC(C)C(=O)NC3(C#N)CCCCC3)[nH]c2c1 (configuration not stated)
→ -2	8	3666	.	6.8	-7	-10
CCOc1ccc(NC(=O)CSc2nnc(C)n2C2CC2)cc1S(=O)(=O)N1CCCC1
→ 10	-1	6388	.	3.5	2	-24
Cc1oc(C(C)(C)C)cc1C(=O)N1CCN(c2ncccc2C(F)(F)F)CC1
→ 0	5	3677	0	0.5	7	1
CC(C(=O)Nc1ccc2ccccc2c1)C1C[C@]1(C)C(NS(=O)(=O)c1ccccc1)c1ccccc1 (some centres not stated)
→ -2	8	.	.	4.7	16	.
COc1ccc(C2C([N+](=O)[O-])=C(N)Oc3c2c(=O)oc2ccccc32)cc1 (configuration not stated)
→ 7	4	.	1	0.8	9	.
N#Cc1cc2c(=O)n3ccccc3nc2n(Cc2ccco2)c1=NC(=O)c1ccco1
→ -6	0	6648	5	6.5	3	17
CC(C)(C)OC(=O)CNC(=O)c1nc[nH]c1C(=O)N1CCNCC1
→ 2	6	3388	-10	3.1	0	-17
Cc1sc2nc(CN3CCOCC3)[nH]c(=S)c2c1C
→ 3	15	4523	5	0.9	5	-21
O=C(Nc1nccs1)C(=O)c1c[nH]c2ccccc12
→ .	.	4137	5	-3.3	6	-97
C[C@H](NC(=O)Cc1cccc2ccccc12)C(=O)N1CCOCC1
→ 4	2	3690	.	3.2	-3	-15
COc1ccc(NC(=O)c2ccccc2N(Cc2ccccc2)S(C)(=O)=O)cc1
→ -3	3	3839	2	4.9	4	-22
COCCN1CCCC(CNCc2cn(C)nc2-c2ccc(Oc3ccccc3)cc2)C1 (configuration not stated)
→ 9	15	3427	10	-1.9	-13	-15
CCCCn1c(N)c(N(CCOC)C(=O)CCC2CCCCC2)c(=O)[nH]c1=O
→ 3	-4	3804	.	-0.6	0	-1

# The listing continues.
# Screens in order – Mtb hypoxia inh	Mtb hypoxia inh growth	Autofluor counter	BJeLR viability	Sa RN4220 lethal	ugtP null kill	PrP UTR inh
Cc1cc(=O)n2nc(N3CCCC(C(=O)NCc4ccccc4C)C3)sc2n1 (configuration not stated)
→ -11	6	5978	12	-1.7	-6	-10
Cc1c(C(=O)O)oc2ccc(S(=O)(=O)N3CC(C)CC(C)C3)cc12 (configuration not stated)
→ .	.	2736	.	-1.3	0	-6
CCOc1c(Br)cc(C2CC(=O)Nc3cc(OC)c(OC)cc32)cc1OC (configuration not stated)
→ 13	6	3031	1	4.8	10	-4
COCC1CCN(C(=O)c2ccc3oc(CCCc4ccccc4)nc3c2)C1 (configuration not stated)
→ 13	-6	5848	-5	6.0	8	-46
COc1cc(CCC(=O)Nc2ccc(S(=O)(=O)N3CCCC3)cc2)cc(OC)c1OC
→ 14	9	3440	.	3.3	5	-29
Cc1ccccc1-c1nc2cc(Cl)ccc2c(=O)o1
→ 7	4	3685	3	13	-4	-12
CCCCC(Br)C(=O)Nc1ccc(S(=O)(=O)Nc2cc(C)nc(C)n2)cc1 (configuration not stated)
→ .	.	5110	-3	.	.	-16
CC1CCN(C(=O)c2ccc(S(=O)(=O)N3CCCC3)cc2)CC1
→ 20	9	4093	.	-1.5	-1	-14
CCCCCNC(=O)c1ccc2c(=O)n(CCCOCC)c(=S)[nH]c2c1
→ -8	-4	4310	5	11	4	-17
COc1ccccc1-c1sc2ccccc2c1-c1ccc(C(C)=O)cc1
→ 1	0	4225	-14	-0.6	24	-31
CCCCCc1ccc(S(=O)(=O)Nc2cc(C)ccn2)cc1
→ -2	-1	5807	-3	5.0	9	-19
O=S(=O)(NC1CCCCC1)c1ccc(N2CCOCC2)nc1
→ -2	5	6328	9	3.6	7	-16
CN1CCN(S(=O)(=O)c2cccc(S(=O)(=O)c3ccc(Cl)cc3)c2)CC1
→ 9	9	8000	10	1.0	5	.
CC(=O)c1cccc(CN2CCC(n3nccc3NC(=O)CCOc3ccccc3)CC2)c1
→ 5	6	4931	-9	2.2	4	-12
COc1cc(C2/C(=C(\O)c3ccc4c(c3)CC(C)O4)C(=O)C(=O)N2c2nnc(C)s2)cc(OC)c1OC (configuration not stated)
→ 3	3	5665	8	4.3	2	-7
O=C(Cn1c(COc2ccccc2)nc2ccccc21)Nc1cccc(Cl)c1
→ 3	4	2352	-17	2.6	-8	-9
CC(C)Cc1nc(N2CCN(C(=O)c3ccco3)CC2)c(C#N)c2c1CCC2
→ .	.	5073	-1	8.7	5	-16
CCCCn1c(N)c(N(CCOC)C(=O)COC(=O)CCOc2ccccc2)c(=O)[nH]c1=O
→ 12	3	6325	4	4.3	5	0
Cc1ccccc1Nc1nc(N)nc(COC(=O)/C=C/c2ccco2)n1
→ -4	8	4211	2	2.1	0	-18
O=C(c1cn(-c2ccccc2)nc1-c1cccnc1)N1CCCC(C(F)(F)F)C1 (configuration not stated)
→ 6	2	5907	14	4.5	2	-2

# (continued)
# Screens in order – Mtb hypoxia inh	Mtb hypoxia inh growth	Autofluor counter	BJeLR viability	Sa RN4220 lethal	ugtP null kill	PrP UTR inh
COCCn1c(=O)[nH]c2cc(C(=O)NC(C)C)ccc2c1=O
→ -4	8	4248	9	-1.0	-6	-5
COc1ccccc1C1CCN(Cc2ccc3ccccc3c2)CC1
→ 3	19	6678	-4	-7.8	-2	-6
O=C(O)COCC(=O)N1CCCN(c2ccc(C(F)(F)F)cn2)CC1
→ 1	-2	4596	7	3.3	4	-4
CCOC(=O)Cc1csc(NC(=O)CCCCCN2C(=O)c3ccccc3C2=O)n1
→ 4	2	5467	4	0.9	13	-3
CCOc1ccc(CNCc2ccccc2Cl)cc1
→ 1	5	4412	14	5.5	-4	-31
CCN1C(=O)[C@H]2[C@@H](c3ccc(-c4ccc(OC)cc4)c(OC)c3)N[C@@](C)(C(=O)OC)[C@H]2C1=O
→ .	.	3035	-17	.	.	-4
COC(=O)c1cc([N+](=O)[O-])c(-n2ccnc2)c([N+](=O)[O-])c1
→ 2	6	2423	-16	3.3	2	-18
O=C(Nc1ccc(Cl)cc1Cl)c1ccc2ncsc2c1
→ -1	-2	4193	-2	-2.4	0	-60
COc1cccc(/C(O)=C2/C(=O)C(=O)N(CCN(C)C)C2c2ccccn2)c1 (configuration not stated)
→ .	.	5004	3	-0.3	-3	-10
COc1cc(OC)cc(C(=O)NNC(=O)Cc2cccs2)c1
→ 23	47	3872	.	4.3	3	-12
OC(CN1CCc2ccccc2C1)c1ccccc1 (configuration not stated)
→ 11	10	4109	-3	5.2	6	-22
CC(=O)c1ccc(Sc2ccccc2N)c([N+](=O)[O-])c1
→ 3	1	4231	5	2.6	-7	1
CC(=NNC(=O)C(N)=O)c1ccc(Br)cc1
→ -1	2	.	.	0.1	-9	.
O=C1C2CCCCN2C(=O)N1CCCCN1CCN(c2ccccc2Oc2ccccc2)CC1 (configuration not stated)
→ -5	4	3977	4	0.6	1	-27
Cc1cccc(NC(=O)c2cccc(N3C(=O)CCC3=O)c2)c1
→ 6	1	5253	4	2.7	7	-19
COc1cc(/C=C2\SC(=Nc3cccnc3)NC2=O)cc(OC)c1OC
→ -9	-11	6618	-3	-1.2	-4	.
Cn1cc(CN2CCC(n3nccc3NC(=O)Cc3ccccc3)CC2)cn1
→ 2	8	6087	-4	2.9	1	-14
c1cncc(-c2nn[nH]n2)c1
→ 8	6	4138	5	5.5	6	-9
COc1ccc(-c2nn(-c3ccccc3)cc2/C=C/C(=O)O)cc1[N+](=O)[O-]
→ 2	-5	4975	-4	3.7	-9	0
COC(=O)c1cc(NC(=O)COC(=O)CCc2c[nH]c3ccccc23)cc(C(=O)OC)c1
→ 9	2	6033	.	1.6	-2	-20

# (next part)
# Screens in order – Mtb hypoxia inh	Mtb hypoxia inh growth	Autofluor counter	BJeLR viability	Sa RN4220 lethal	ugtP null kill	PrP UTR inh
CSc1ccc(S(=O)(=O)N2CCC(C(=O)NCCCn3ccnc3)CC2)cc1
→ 3	-9	6478	2	0.1	5	-14
O=C(NCc1ccco1)c1cccc(NC(=O)c2ccco2)c1
→ -10	-1	16107	11	-3.6	-10	-22
CC(C)(C)n1nc2c(c1NC(=O)Cc1ccc(F)cc1)CS(=O)(=O)C2
→ 4	5	4469	-9	0.6	3	-16
COc1ccccc1C=NNc1ccc([N+](=O)[O-])cn1
→ 7	1	3917	.	4.2	-4	-45
CCOC(=O)N1CCN(C(=O)c2ccc3c(c2)NC(=O)/C(=C/c2ccccc2)S3)CC1
→ -10	9	5661	4	-0.2	-19	1
Cc1ccc2cccc(OCC(=O)N(C)CC(=O)Nc3ccc(F)cc3)c2n1
→ -5	-1	?	.	-1.8	-3	-25
Cc1cccc(C)c1NC(=O)NNC(=O)c1cc(C(C)(C)C)nn1Cc1ccccc1
→ -7	5	3472	-11	-1.3	-5	-6
Cc1cccc(/C=c2\s/c(=C\C(=O)C(C)(C)C)[nH]c2=O)c1
→ .	.	2580	0	.	.	-13
CCCC(c1nnnn1Cc1ccco1)N1CCC(C(N)=O)CC1 (configuration not stated)
→ .	.	3268	0	5.4	1	13
COc1cc(/C=C/C(=O)NCCN2CCOCC2)cc(OC)c1OC
→ 5	7	1954	1	0.5	0	-17
COC(=O)[C@@]1(Cc2ccc(OC)cc2)C2c3cc(C(=O)N(C)C)n(CCSCCO)c3CC2CN1C(=O)c1ccccc1 (some centres not stated)
→ 19	5	.	.	5.1	7	.
COc1ccc(C(C)C)cc1S(=O)(=O)n1ccnc1C
→ 6	14	2388	4	5.2	-2	1
O=C(NC(c1ccccc1)c1ccccc1)c1ccccc1
→ 17	4	2977	.	-0.4	-4	-12
Cc1cc(NC(=S)N(CCN2CCCCC2)Cc2ccco2)ccc1Cl
→ 14	9	4495	3	18	2	-6
CC(=O)c1ccc(OCc2cc(C(=O)NCCn3nc(C)cc3C)no2)cc1
→ 3	-1	?	-3	0.5	-2	-28
CCCCn1c(N)c(N(CC)C(=O)C2COc3ccccc3O2)c(=O)[nH]c1=O (configuration not stated)
→ 7	-1	.	.	-0.1	3	-12
CC(C)c1ccc(-n2c(O)c(/C=N/NC(=O)c3ccccc3O)c(=O)[nH]c2=S)cc1
→ 15	4	4413	1	88	10*	-10
O=C(Nc1ccc2oc(-c3ccncc3)nc2c1)c1cccs1
→ 1	12	3262	-5	8.8	8	-35
O=C(CCCN1Cc2ccccc2C1)c1ccc(F)cc1
→ 11	21	4431	3	2.5	1	-17
Clc1ccccc1/C=N/Nc1cc(N2CCOCC2)ncn1
→ .	.	3912	4	.	.	-37
Cn1c(CNC(=O)C(Cc2ccccc2)NC(=O)c2ccccc2F)cc(=O)n(C)c1=O (configuration not stated)
→ 7	1	5744	10	2.0	3	-11
Cc1ccc(CNC(=O)CCCN2C(=S)NC(C)(C)CC2C)cc1 (configuration not stated)
→ 3	-1	4536	2	8.4	3	-21

# 5 entries picked at random from those above, as already listed:
# Screens in order – Mtb hypoxia inh	Mtb hypoxia inh growth	Autofluor counter	BJeLR viability	Sa RN4220 lethal	ugtP null kill	PrP UTR inh
c1cncc(-c2nn[nH]n2)c1
→ 8	6	4138	5	5.5	6	-9
CC(C(=O)Nc1ccc2ccccc2c1)C1C[C@]1(C)C(NS(=O)(=O)c1ccccc1)c1ccccc1 (some centres not stated)
→ -2	8	.	.	4.7	16	.
COc1ccc(NC(=O)c2ccccc2N(Cc2ccccc2)S(C)(=O)=O)cc1
→ -3	3	3839	2	4.9	4	-22
Cc1sc2nc(CN3CCOCC3)[nH]c(=S)c2c1C
→ 3	15	4523	5	0.9	5	-21
COCCN1C(=O)N[C@@H](c2ccccc2)[C@@H](C(=O)OC)[C@H]1C
→ .	.	4095	4	.	.	-20
